Screening results (PubChem BioAssay)
HNF4A DNA FP = change in binding of human HNF4 alpha to DNA; P41235; HNF4a-FITC DNA binding, fluorescence polarization, 1 h; activity change, % at 10 µM; 360,000 tested, 0.3% active; in the data active = activity change above about 30%, passing the limit was not always enough;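 also: controls were the assay level and a saturating level of protein; the project sought stronger binding though the title names inhibitors; some compounds called inactive have numbers as strong as hits; positive values seem to mean higher polarization but the record does not say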
B2AR ag = agonists of human beta-2 adrenergic receptor inducing internalization. 340,000 tested, 0.43% active. response, % (concentration not given with the values). Am2.2-beta2AR cells, FAP receptor internalization, flow cytometry; reference of the scale not given here. P07550;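 active = response above a set limit, near 3 SD of response in nonfluorescent compounds, cut at about 42% in these data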;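 also: stock transfer was 100 nL into about 11 µL; a reference agonist was the positive control; negative values mostly stem from fluorescent compounds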
Target sequence (P07550 whole entry, looked up): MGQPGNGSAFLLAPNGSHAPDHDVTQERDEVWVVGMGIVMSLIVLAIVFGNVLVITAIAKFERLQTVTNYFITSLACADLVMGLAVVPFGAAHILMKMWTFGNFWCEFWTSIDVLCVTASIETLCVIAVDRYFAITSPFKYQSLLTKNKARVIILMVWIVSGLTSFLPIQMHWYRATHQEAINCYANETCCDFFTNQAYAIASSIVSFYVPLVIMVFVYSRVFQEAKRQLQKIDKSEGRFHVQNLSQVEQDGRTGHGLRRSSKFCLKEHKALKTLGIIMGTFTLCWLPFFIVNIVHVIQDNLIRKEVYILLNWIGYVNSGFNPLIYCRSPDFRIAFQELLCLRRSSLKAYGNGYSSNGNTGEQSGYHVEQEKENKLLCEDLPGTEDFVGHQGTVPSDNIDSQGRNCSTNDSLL
RanGTP-Imp inh = inhibitors of RanGTP-importin-beta interaction, primary screen, biochemical, FRET, CFP-Ran, YFP-importin-beta, homogeneous. cell-free CFP-Ran/YFP-importin-beta FRET ratio. inhibition, % (no concentration beside the values). 300,000 tested, 1.1% active. AID 2216;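 active = most replicates above 15%; inconclusive = exactly half above 15%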;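 also: 0% = DMSO wells and 100% = Ran loaded with GDP instead of GTP; wells of about 40 µL received 100 nL stock; the first replicate is given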
Calb FLC = affects C. albicans growth with fluconazole; C. albicans CaCi-2 (fluconazole-resistant clinical isolate) + fluconazole, Alamar Blue growth, 48 h; 300,000 tested, 0.57% active; AID 1979; growth inhibition, % (no concentration beside the values);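 active = most replicates above 75%; inconclusive = exactly half above 75%; inactive = most below 75%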;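 also: all wells also contain fluconazole at 8 µg/ml as a sub-toxic cotreatment; 0% = median of DMSO wells and 100% = median of geldanamycin control wells; wells of about 8 µL received 7.5 nL stock; the first replicate is given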
Vif TR-FRET = HIV-1 Vif–A3G interaction blockers – biochemical, TR-FRET, GST-Vif 1-94, biotin-A3G peptide, dose response retest, primary screen (AID 1117319); TR-FRET GST-Vif / biotin-A3G peptide binding; higher % means a stronger effect; test concentration not given here; strong numbers were not always called active; one-dose inhibition, %; IC50 in µM for titrated hits; 260,000 tested, 0.57% active;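 active = above the screen mean plus three standard deviations and confirmed in dose response; inconclusive = results disagree or hit not tested in dose response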;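 also: Vif residues 1-94 fused to GST binding biotinylated APOBEC3G peptide 110-148; 0% = full assay without inhibitor and 100% = GST in place of GST-Vif; retest series ran down from 100 µM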
ALR inh = blocks human ALR sulfhydryl oxidase activity; P55789; purified ALR, DTT oxidation, H2O2 HRP-luminol luminescence; inhibition, % (concentration not given with the values); 290,000 tested, 3.8% active; AID 485317;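 active = mean and each replicate at 75% or more; inconclusive = only one of the two met; inactive = neither met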;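 also: stock transfer was 7.5 nL into about 7.5 µL; 0% = neutral wells and 100% = wells with inactivated enzyme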
Target sequence (P55789 whole entry, looked up): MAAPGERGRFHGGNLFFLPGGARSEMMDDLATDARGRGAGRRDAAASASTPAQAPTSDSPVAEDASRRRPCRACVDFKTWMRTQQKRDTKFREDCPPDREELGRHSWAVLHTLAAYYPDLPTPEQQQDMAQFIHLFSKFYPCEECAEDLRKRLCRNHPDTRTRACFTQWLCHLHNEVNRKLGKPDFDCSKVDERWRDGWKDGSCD
LANA-H2B inh = blocks KSHV LANA binding to histone H2A/H2B. Q9QR71. cell-free LANA-H2A/H2B peptide, fluorescence polarization. AID 2629. inhibition, % (concentration not given with the values). 320,000 tested, 0.6% active; in the data active = inhibition mostly above about 10%, no sharp cut-off; inactive = mostly below about 6.7%;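 also: stock transfer was 7.5 nL into about 10 µL; 0% = median of vehicle wells and 100% = median of positive control wells; one replicate is shown; the record names a cut of 25% in any replicate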
* hit, by the source's call; ? = inconclusive; · = no result given.

Results follow in this order: HNF4A DNA FP, B2AR ag, RanGTP-Imp inh, Calb FLC, Vif TR-FRET, ALR inh, LANA-H2B inh
Cc1cc(C)n(Cc2ccc(C(=O)Nc3ccc(Br)cc3C)o2)n1
  -6.2, 2, 0.4, 11, 5%, 5, 5.2
CCC(C)(NC=O)C(=O)Nc1c(C)cccc1C (centres undefined)
  -3.5, 8, -3.4, -1, ·, ·, -6.4
Cc1nc(NC(=O)CN2CCN(c3cccc(Cl)c3)CC2)sc1C(=O)N(C)C
  -1.3, -2, 0.4, -5, 7%, 7, 4.1
COc1ccc(NC(=O)c2cc([N+](=O)[O-])ccc2NC(=O)CNCc2ccccn2)c(OC)c1
  1.3, 3, 1.3, 15, ·, ·, -3.3
CNC(=O)c1ccc2nc(NC(C)=O)sc2c1
  -1.2, 0, 2.9, 3, -4%, 26, 1.3
CNC(=S)NNC(=O)c1ccc(N(C)C)cc1
  1.9, -6, 5.4, -2, 16%, -2, -5.2
COc1ccc(-c2cc(C)no2)cc1S(=O)(=O)N1CCCN(Cc2ccccc2Cl)C1
  -0.9, -10, 0.4, -17, ·, -3, -3.1
CC(C)CNc1oc(-c2ccccc2Cl)nc1C#N
  0.8, 2, ?, 23, 5%, 13, 8.5
Cc1ccccc1OCCNC(=O)c1ccco1
  1.3, -3, -0.3, -7, ·, 0, -4.5
CCOc1ccc(N2CC(C(=O)Nc3cc(OCC)c(N4CCOCC4)cc3OCC)CC2=O)cc1 (centres undefined)
  -1.1, 2, ·, ·, 5%, ·, ·
COc1ccccc1C(=O)N1CCN(CCNC(=O)C(=O)Nc2ccc(Br)c(C)c2)CC1
  1.3, 3, 0.2, 4, -5%, -3, 4.3
O=C(COc1ccccc1)Nc1c(Cl)ccc2nsnc12
  0.8, -4, 1.8, -3, ·, 16, 7.2
C=CCNc1oc(-c2ccco2)nc1S(=O)(=O)c1ccccc1
  2.7, 9, -0.6, 3, -6%, 6, 2.6
COc1cccc(-c2nc3c(c(=O)[nH]c(=O)n3Cc3ccccc3)n2CCO)c1OC(F)F
  2.9, -4, 3.8, -3, ·, -1, 3.1
C=CCn1c(C)cc(C(=O)CSc2nnc(C3CC3)n2C2CC2)c1C
  4.8, 6, ·, ·, 2%, 8, -3.3

In the list so far, these have bromine:
Results follow in this order: HNF4A DNA FP, B2AR ag, RanGTP-Imp inh, Calb FLC, Vif TR-FRET, ALR inh, LANA-H2B inh
Cc1cc(C)n(Cc2ccc(C(=O)Nc3ccc(Br)cc3C)o2)n1
  -6.2, 2, 0.4, 11, 5%, 5, 5.2
COc1ccccc1C(=O)N1CCN(CCNC(=O)C(=O)Nc2ccc(Br)c(C)c2)CC1
  1.3, 3, 0.2, 4, -5%, -3, 4.3

Continuation:
Results follow in this order: HNF4A DNA FP, B2AR ag, RanGTP-Imp inh, Calb FLC, Vif TR-FRET, ALR inh, LANA-H2B inh
Cc1cc(N)n(-c2ccccc2)n1
  -0.6, -1, 0.2, -6, 2%, ·, 1.0
CCOC(=O)COc1nc(Nc2ccccc2C)nc(N(C)C)n1
  -1.1, 12, -2.4, 6, 15%, 5, 11
CCn1cc(C(=O)O)c(=O)c2cc3c(cc21)OCO3
  ·, ·, -3.5, ·, ·, -5, 1.0
COCCN(C(=O)CSc1nnc(-c2ccc(C)cc2)n1N)c1c(N)n(Cc2ccccc2)c(=O)[nH]c1=O
  6.3, 1, 4.2, 10, 4%, -6, -7.4
CCCc1cc(=O)[nH]c(SCC(=O)Nc2ccc(Br)cc2Br)n1
  2.5, 4, 0.6, 60*, 9%, -4, 1.2
CC(C)(C)n1nc2c(c1NC(=O)Cc1cccc3ccccc13)CS(=O)(=O)C2
  3.5, 2, -1.2, -4, ·, -188, -3.1
Cc1cc(-c2c(C)[nH]n(-c3ccc(Cl)cc3)c2=O)n(-c2ccccc2)n1
  3.8, -1, 1.2, ?, 6%, 54, 0.9
O/N=C/c1ccc(-c2ccccc2OC(F)(F)F)o1
  -1.9, 1, -0.6, -11, 0%, -5, -0.3
Cc1ccc(C(=O)OCC(=O)NC(=O)Cc2ccccc2)c(O)c1
  0.1, 3, -3.6, 1, ·, 1, -7.2
CCOc1ccc(CC(=O)Nc2c(C(N)=O)oc3ccc(Br)cc23)cc1OCC
  3.9, 16, 2.6, 5, -2%, ·, -5.8
COc1ccc(C(=O)Nc2ccc(F)cc2F)cc1OC
  1.3, 0, -1.1, 31, 0%, -5, -5.1
CCN(Cc1ccccc1)C(c1ccccn1)c1nnnn1C(C)(C)CC (centres undefined)
  -1.9, 1, 5.3, 3, 11%, 3, 1.4
CCOc1ccc(CC(=O)Nc2nccs2)cc1
  -5.8, -6, -1.0, -12, ·, 0, -1.9
COC(=O)c1cc(-n2cccc2)ccc1N1CCOCC1
  -0.1, -3, -1.3, 4, 5%, ·, 1.1
CC1=C(C(=O)OC(C)C)C(/C=C/c2ccccc2)NC(=O)N1 (centres undefined)
  2.7, -1, 3.4, 0, ·, ·, -7.8
Cc1ccccc1-n1ncc2c1CC(C)(C)CC2NC(=O)c1cn[nH]c1C (centres undefined)
  -0.8, 9, 1.0, -2, -4%, -16, ·
COc1ccc(-c2nn(CCC#N)cc2C(=O)Nc2cccc(C(=O)O)c2)cc1[N+](=O)[O-]
  0.9, -6, 0.8, -8, ·, 2, 15*
O=C1CCC(C(=O)OC(C(=O)Nc2ccc([N+](=O)[O-])cc2Br)c2ccccc2)=NN1 (centres undefined)
  0.1, 4, ·, ·, -1%, -5, ·
O=C(C1CCN(S(=O)(=O)c2ccccc2F)CC1)N1CCN(Cc2ccc3c(c2)OCO3)CC1
  -2.2, 0, ·, ·, ·, -3, 5.2
CC(=O)N1CC=CC1(CC(C)C)C(=O)NCCN1CCOCC1 (centres undefined)
  1.4, -1, -1.3, 5, ·, 0, -2.8
O=C(Nc1ccccc1Cl)Nc1cccnc1Cl
  2.0, -11, -1.5, 5, 10%, -8, 3.4
Cc1ccc2c(c1)C(C)CC(C)(C)N2C(=O)NC1CCCCC1 (centres undefined)
  -12, 6, 2.2, -4, -1%, 11, -1.9
CCC(=O)Nc1ccc(SC#N)cc1C
  -2.0, 16, -1.4, 1, -4%, 98*, 3.3
CCOc1ccc(C2C3=C(CCCC3=O)N(CC(=O)O)C3=C2C(=O)CCC3)cc1
  -2.9, 0, 63*, 11, ·, -14, -3.1
O=C1c2ccccc2C(=O)N1CCc1ccccc1
  1.1, 12, -0.1, 1, ·, -8, 2.0
O=C(N/N=C\c1ccc(O)c([N+](=O)[O-])c1)C1COc2ccccc2O1 (centres undefined)
  4.9, 16, 2.6, 27, -10%, -10, 3.1
COc1cccc(-n2c([S-])c(C(=O)Nc3ccc(S(=O)(=O)N4CCOCC4)cc3)[n+]3cc(C(N)=O)ccc23)c1
  -2.2, 10, -3.1, 5, -88%, ·, -1.6
O=C(NC1CC1)c1cccc(NC(=O)c2cn3ccccc3n2)c1
  1.4, -3, ·, ·, ·, -1, -4.2
CN(C)CCN(C(=O)c1ccc2c(c1)OCCO2)c1nc2ccc(Cl)cc2s1
  -0.8, 5, 0.5, -9, 14%, -16, -6.4
COc1ccc(S(=O)(=O)N2CCC(C(=O)N3CCc4ccccc4C3)CC2)cc1Cl
  2.4, -6, 0.2, 9, -4%, 0, 11
Cc1ccc(CNC(=O)COC(=O)CCCOc2ccc(Cl)cc2Cl)cc1
  -1.3, -5, 8.9, 6, 0%, -6, 4.9
Nc1cc(N)nc(SCCN2CCCCC2)n1
  -2.5, 6, -1.0, -12, 19%, 1, -0.4
O=[N+]([O-])c1ccc(Nc2ccc(N3CCOCC3)cc2)c([N+](=O)[O-])c1
  0.5, 18, ?, -5, -8%, 99*, -3.5
Cc1[nH]c2ccccc2c1CN1CCN(c2ccccn2)CC1
  -4.7, -9, -0.8, 10, 1%, 23, 3.9
CCOC(=O)c1sc(N)c(C#N)c1CSc1nnc(C2CC2)n1N
  13, -5, 8.8, 4, 6%, -3, -0.5
CC1CCN(Cc2nnnn2CCCC(=O)NCCc2cnn(C)c2)CC1
  -0.5, 1, -1.4, -2, ·, 1, -1.0
CCOC(=O)C1CCN(C(=O)CCCOc2ccccc2)CC1
  1.2, 14, 7.8, -7, -3%, -1, 2.6
O=C(NCc1ccccn1)c1ccc(N2CCCC2)c([N+](=O)[O-])c1
  0.1, -16, -3.0, 5, -5%, 0, -6.5
O=C(NNC1=C(C(=O)C(F)(F)F)CCC1)c1ccccc1Cl
  -0.7, -4, 3.3, 6, 4%, ·, 3.5
O=C1Nc2ccc(S(=O)(=O)N3CCCC3)c3cccc1c23
  -0.4, -6, 2.1, -16, -1%, -12, 1.1
O=C1CSC(c2ccccc2F)N1CCN1CCCCC1 (centres undefined)
  -2.8, -9, -0.9, 0, 12%, -15, -3.1
O=C(NCCN1CCCCC1)Nc1ccc(Cl)cc1
  -3.5, 4, -0.2, -8, ·, 9, 7.0
CC12CCC(=O)N1C(C(=O)Nc1ccc(F)cc1)CS2 (centres undefined)
  4.9, 2, 1.0, -7, -7%, 0, -5.6
COc1ccc(OC)c(S(=O)(=O)N2CCC(C(=O)NC(C)c3ccccc3)CC2)c1 (centres undefined)
  -5.3, 3, -1.0, -34, 4%, -17, 0.7
O=C(Nc1ccc(F)cc1)Nc1cccc(Br)c1
  -7.6, -1, -1.6, -12, ·, -5, 5.1

Three entries from above, ordered by molar mass, ascending.
Results follow in this order: HNF4A DNA FP, B2AR ag, RanGTP-Imp inh, Calb FLC, Vif TR-FRET, ALR inh, LANA-H2B inh
O=C1CSC(c2ccccc2F)N1CCN1CCCCC1 (centres undefined)
  -2.8, -9, -0.9, 0, 12%, -15, -3.1
O=C1CCC(C(=O)OC(C(=O)Nc2ccc([N+](=O)[O-])cc2Br)c2ccccc2)=NN1 (centres undefined)
  0.1, 4, ·, ·, -1%, -5, ·
O=C(C1CCN(S(=O)(=O)c2ccccc2F)CC1)N1CCN(Cc2ccc3c(c2)OCO3)CC1
  -2.2, 0, ·, ·, ·, -3, 5.2

Going on with the list:
Results follow in this order: HNF4A DNA FP, B2AR ag, RanGTP-Imp inh, Calb FLC, Vif TR-FRET, ALR inh, LANA-H2B inh
Nc1ccccc1/C=C/c1ccccc1N
  3.5, 7, ·, ·, 7%, ·, ·
Cc1ccc(NC(=O)C2CCCN2C(=O)OC(C)(C)C)cc1C (centres undefined)
  1.4, -7, ?, 2, 8%, -3, 3.8
O=c1c2cn[nH]c2[nH]c(=S)n1-c1ccccc1
  1.0, -3, 2.7, 4, 18%, 12, -4.5
CC(=O)Oc1ccc(N2C(=O)C3C(C2=O)C(C(=O)c2ccc(Cl)cc2)N2CCCC32)cc1 (centres undefined)
  11, -3, -20, 30, ?, -5, -1.1
O=C(c1ccc(-c2ccccc2)cc1)c1ccccc1C(=O)N1CCOCC1
  1.9, -1, -4.7, 0, 24%, -13, -1.1
Cc1nnc(NNS(=O)(=O)c2ccc(Cl)cc2)[nH]c1=O
  -3.7, -2, 0.1, -12, 6%, 53, -0.8
N#CCCN(C(=O)COC(=O)/C=C/c1cccs1)c1ccccc1
  1.9, -10, ·, ·, -8%, -9, -6.5
